gsp agonist = gsp mutant agonism; gsp mutant cells, cAMP HTRF, 30 min; control for the full effect not named in the record; Potency, µM (doses to about 76.9 µM), for inactives: at the highest dose activation (cAMP increase), hits mostly activators; hit rate 0.13% among 340,000; AID 624287; active = well fitted activation curve with a large enough effect; inconclusive = small, poorly fitted or top-dose-only effect, or another doubt; inactive = no such curve, though single readings can be large or run the other way; cell line not stated here;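 also: phosphodiesterase inhibitor Ro 20-1724 added with compounds to block cAMP breakdown; potency is read from the fitted curve at half-maximal effect; nearly all actives have a fitted effect of over 60% in size; about a fifth of the inactives were tested at one dose only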
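Cells stably selected in G418 were plated at 2000/well, grown 16-24 hr, then given compounds in DMSO with the PDE inhibitor […] (300 uM solution added) for 30 min at 37C; cAMP was read by HTRF.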
gsp antag = antagonizes gsp, the McCune-Albright syndrome mutation | gsp-mutant cells, cAMP HTRF, 30 min; control for the full effect not named in the record | Potency, µM (doses to about 76.9 µM), for the others: at the highest dose activity change, negative = inhibition, usual class: inhibitors | hit rate 0.4% among 340,000 | AID 624288; active = falling curve of any shape with a large fitted effect; inconclusive = falling curve, mostly with a smaller effect; inactive = flat or rising curve; cell line not stated here;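 also: intracellular cAMP measured with PDE inhibitor Ro 20-1724 present during compound exposure; potency is read from the fitted curve at half-maximal effect; % is scaled to controls: 0 for no effect and ±100 for the full control effect; nearly all actives have a fitted effect of over 65% in size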
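Cells in G418 medium, seeded 16-24 h, 37C; buffer exchange to DPBS + 1 mM CaCl2, 0.5 mM MgCl2, 0.05% BSA; cpds in DMSO + […] (300 uM stock), 30 min 37C; HTRF cAMP detection.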
Menin-MLL FL inh = displaces fluorescein MLL peptide from human menin. AID 1766. Fluorescence polarization, fluorescein-MLL peptide displacement from menin. 290,000 tested, under 10 active. FP activity change, % at 61.4 µM; inconclusive = falling polarisation curve, or a change in total fluorescence; inactive = total fluorescence flat and polarisation flat or rising; no compound was filed as active; the % refers to the polarisation; negative = inhibition;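 also: % of control where 0% means no effect; inhibitors lower the polarisation; unlabelled MLL peptide was the positive control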
D2 PAM = positive allosteric modulators of human D2 dopamine receptor | P14416 | DiscoveRx D2 beta-arrestin cells, luminescence, 90 min; 100% = 57 uM dopamine signal | potentiation, % (concentration not given with the values) | hit rate 0.23% among 360,000; active = potentiation of 50% or more; inconclusive = 30% to 50%; inactive = 30% or less;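 also: compound concentration not given in the record; tested on top of an EC20 dose of dopamine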
Target sequence (P14416 whole entry, looked up): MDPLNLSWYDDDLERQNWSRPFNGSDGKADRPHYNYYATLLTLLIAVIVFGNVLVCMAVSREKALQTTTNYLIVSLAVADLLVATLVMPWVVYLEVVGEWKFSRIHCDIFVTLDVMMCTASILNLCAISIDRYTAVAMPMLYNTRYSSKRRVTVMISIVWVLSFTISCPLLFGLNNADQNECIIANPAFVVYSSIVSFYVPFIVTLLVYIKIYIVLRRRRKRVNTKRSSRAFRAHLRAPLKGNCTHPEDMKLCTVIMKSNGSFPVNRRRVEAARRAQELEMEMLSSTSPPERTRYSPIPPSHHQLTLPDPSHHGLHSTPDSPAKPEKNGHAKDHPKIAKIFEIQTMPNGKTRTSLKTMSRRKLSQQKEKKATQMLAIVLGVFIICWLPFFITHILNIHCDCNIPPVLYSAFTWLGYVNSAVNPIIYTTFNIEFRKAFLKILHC
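D2 cells co-treated with compound plus 50 nM dopamine (EC20) for 90 min at 37 deg C to detect potentiation. Beta-arrestin recruitment was read as enzyme-fragment luminescence after 1 h at ambient temperature. Full response was set by 57 uM dopamine.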
TRPV1 PAM = human TRPV1 potentiation; TRPV1-expressing cells, Fluo-8 calcium influx, capsaicin EC20 potentiation; host cell line not named in the record; control for the full effect not named in the record; Q8NER1; hit rate 0.02% among 320,000; AID 540277; potentiation, % at 8.33 µM; active means potentiation above 80%; inconclusive means 30% to 80%; inactive means below 30%; also: 0% is about no effect
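TRPV1-expressing cells were cultured overnight at 35.5C and loaded with Fluo-8 calcium dye for 40 to 90 min at room temperature. After a 10 s baseline, compound was added and calcium influx was read kinetically for 3 min (ex 480/em 520 nm).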
ClpP mod = qHTS Assay for Activators of ClpP. hit rate 1.9% among 340,000. purified B. subtilis ClpP, FRET peptide cleavage, 20 min. Potency, µM (highest dose often 57.5 µM), for inactives: at the top dose activity change, negative = active. ATP-dependent Clp protease proteolytic subunit (Bacillus subtilis (strain 168)), P80244. AID 651965, 2013; active = well fitted falling curve with a large enough effect; inconclusive = small, poorly fitted or top-dose-only effect; inactive = no such curve, though single readings can be large or run the other way; also: potency is read from the fitted curve at half-maximal effect; the source files actives as falling curves though it sought activators and does not explain the sign; nearly all actives have a fitted effect of over 65% in size; many hits overshoot -100%
Target sequence (P80244 whole entry, looked up): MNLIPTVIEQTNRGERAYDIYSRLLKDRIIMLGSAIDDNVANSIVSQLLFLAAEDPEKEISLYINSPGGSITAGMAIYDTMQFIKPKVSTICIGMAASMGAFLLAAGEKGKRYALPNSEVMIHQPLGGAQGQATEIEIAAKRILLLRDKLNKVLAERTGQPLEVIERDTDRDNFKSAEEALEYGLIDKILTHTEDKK
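FRET quenching reversal measured ClpP activation: 10 microg/mL B. subtilis ClpP at pH 8 with the FRET-FV decapeptide, read at 430 nm after 320 nm excitation. The 20-min minus 0-min signal was scaled between DMSO/no-enzyme wells and ADEP (5.8 microM final).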
Sfp inh = blocks B. subtilis Sfp PPTase activity; hit rate 3.5% among 310,000; Biochemical Sfp PPTase activity, qHTS; Potency, µM, without a hit: max response, negative = inhibition, actives largely listed as inhibitors; active = well fitted inhibition curve with a large enough effect; inconclusive = small, poorly fitted or top-dose-only effect, or another doubt; inactive = no such curve, though single readings can be large or run the other way;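 also: the enzyme is Sfp with the accession as filed and its product quenches rhodamine fluorescence; potency is read from the fitted curve at half-maximal effect; 0% = enzyme reaction without inhibitor and -100% = no enzyme wells; top concentration of the series not given in the record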
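Fluorescence-quenching assay: 15 nM Sfp-PPTase preincubated 15 min at room temperature with compound, then 5 uM rhodamine-CoA and 12.5 uM BHQ-2-labelled YbbR peptide added. Fluorescence (ex 525/em 598 nm) read at start and after 30 min; difference gives rate.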
An asterisk follows results filed as active; ? = inconclusive; nt = not tested or not shown; & = joins results of further samples; ! = not confirmed by another sample; [ ] = remark or other dose.

item	molecule	gsp agonist	gsp antag	Menin-MLL FL inh	D2 PAM	TRPV1 PAM	ClpP mod	Sfp inh
1	O=C(Nc1ccc(Cl)cc1F)c1cc(S(=O)(=O)N2CCCCC2)ccc1F	7%[15.4 µM]	23%	4.4	-1	-1	-0.6%	4%
2	CCOC(=O)Cn1c(=O)oc2ccc(C)cc21	-13%[15.4 µM]	-7%	1.2	1	6	nt	15%
3	Cn1c(N)c(C#N)c2c(c1=S)CSC(C)(C)C2	0%	-4%	?	4	4	-3.3%	79µM*
4	CCOC(=O)N1CCN(C(=O)c2ccc3c(=O)n(CCc4ccc(OC)c(OC)c4)c(=O)[nH]c3c2)CC1	?	-21%	nt	-3	20	-2.3%	8%
5	COc1cccc(OCC(O)CN2CCc3ccccc3C2)c1 (stereo unspecified)	-33%[inhibitor]	9%	nt	-31	22	-1.1%	9%
6	Cc1cc(C(=O)Cn2cnc3ccc(Cl)cc3c2=O)c(C)n1C1CC1	6%[15.4 µM]	3%	nt	-7	nt	nt	nt
7	O=C1c2cccc([N+](=O)[O-])c2C(=O)N1c1ccccc1	-1%[15.4 µM]	-8%	1.8	-3	-1	nt	-1%
8	Cc1cccnc1NC(=O)c1sc2ccccc2c1Cl	?	4%	nt	-6	-1	64%	8%
9	COc1ccc(N(C(=O)Cc2cccs2)C(C(=O)NC2CCCCC2)c2cccn2C)cc1OC (stereo unspecified)	-6%	-8%	2.1	-8	-4	-0.6%	0%
10	CCCCSc1nnc(-c2c[nH]c3ccccc23)n1C	?	-5%	-0.5	-5	3	-5.0%	-2%
11	Cc1ccc(NC(=O)COC(=O)COc2cccc3c2OC(C)(C)C3)cc1S(=O)(=O)N1CCOCC1	14%	-15%	nt	-10	8	-0.5%	nt
12	CCCCN(CC)CCCNC(=O)CS(=O)(=O)Cc1nc(-c2cccc(OC)c2)oc1C	0%	9%	-4.3	-20	-3	-13%	-2%
13	O=C(NCCO)c1nc(NCCO)c2ccccc2n1	5%	4%	5.5	5	5	-8.0%	17%
14	CC1Cc2ccccc2N1C(=O)C12CCC(C)(C(=O)C1)C2(C)C (stereo unspecified)	?	-14%	-0.1	-15	-35	-0.5%	9%
15	Cc1n[nH]c(C)c1CCC(=O)N/N=C/c1c[nH]c2ccccc12	10%[15.4 µM]	0%	-2.6	-10	21	nt	2%
16	Nc1nc(NC(=O)Cc2ccccc2)nn1-c1ccccc1	-9%	3%	2.8	1	0	-2.1%	12%
17	CCN(CC)CCNS(=O)(=O)c1ccc2[nH]cc(C(=O)O)c(=O)c2c1	13%	5%	3.0	4	4	?	2%
18	COc1ccc(S(=O)(=O)N2CCN(Cc3cccc(OC)c3)CC2)cc1	2%	0%	1.7	-30	9	-3.6%	16%
19	CCCc1cc(=O)[nH]c(SCC(=O)Nc2cc(S(=O)(=O)N(CC)c3ccccc3)ccc2Cl)n1	1%	-13%	nt	-7	nt	-2.3%	nt
20	CN(Cc1ccccc1)c1nc2c(c(=O)[nH]c(=O)n2C)n1CCOc1ccccc1	-3%	20%	2.1	-5	4	0.2%	-24%
21	COc1ccccc1NC(=O)NCCCl	-12%	14%	1.7	-6	2	-1.7%	9%
22	Cc1ccnc(SCC(=O)O)n1	4%	4%	-3.7	11	1	-0.5%	4%
23	O=C(CCS(=O)(=O)c1ccc(Br)cc1)NC1CCCC1	4µM*	10%	1.4	-3	5	-0.2%	10%
24	CCOCCCN(CCC#N)S(=O)(=O)c1ccc(S(=O)(=O)N2CCCC2)cc1	2%	-8%	2.4	-15	-1	-1.4%	15%
25	Cc1cc(C)c(C(=O)CN2C(=O)NC3(CCCCCC3)C2=O)cc1C	0%	-5%	3.3	-6	-2	nt	21%
26	CSCCC(NC(=O)c1ccc([N+](=O)[O-])cc1Cl)C(=O)OCC(=O)N1CCN(C(C)=O)CC1 (stereo unspecified)	-23%	0%	nt	-4	7	-1.8%	nt
27	Cc1ccc(C(=O)Nc2ccc(Cl)cn2)cc1	-4%	10%	2.0	-17	-10	0.1%	5%
28	O=C(O)c1cccc(NC(=O)c2ccc3c(c2)C(=O)N(CC2CCCO2)C3=O)c1 (stereo unspecified)	-17%	-7%	1.0	-6	5	1.6%	5%
29	COc1ccc(/C=C2\CCc3ccccc3C2=O)cc1Cn1cccn1	?	?	-0.9	-15	-5	-1.4%	-24%
30	N#Cc1ccc(-c2ccc(OCC(=O)NCCc3ccccc3)cc2)cc1	?	-13%	0.9	14	2	32µM*	?
31	Cc1ccc(Sc2c([N+](=O)[O-])ncn2C)cc1	0%	-2%	0.6	-3	-6	-2.6%	12%
32	O=C(Nc1ccc(Oc2ccccc2)nc1)C1CCCCN1Cc1cccc(OCCO)c1 (stereo unspecified)	?	-7%	5.0	5	-5	-2.1%	1%
33	COc1ccc(CS(=O)(=O)CC(C)(O)c2ccccc2)cc1 (stereo unspecified)	-25%	8%	2.2	-10	2	-1.5%	7%
34	Nc1cc(N2CCCC2)ccc1[N+](=O)[O-]	-16%[15.4 µM]	4%	2.4	-16	1	-2.7%	19%
35	O=C(Cn1cc(CCO)nn1)N1CCNCC1	11%	8%	-3.8	-7	-8	-0.4%	8%
36	Cc1ccc(C(=O)/C=C\NCc2ccccc2)cc1	-33%[inhibitor]	-25%	0.1	1	-18	1.1%	89µM*

Complete entries from above.
Cc1ccc(Sc2c([N+](=O)[O-])ncn2C)cc1 as listed: gsp agonist = 0%; gsp antag = -2%; Menin-MLL FL inh = 0.6; D2 PAM = -3; TRPV1 PAM = -6; ClpP mod = -2.6%; Sfp inh = 12%
O=C(Nc1ccc(Oc2ccccc2)nc1)C1CCCCN1Cc1cccc(OCCO)c1 (stereo unspecified) as listed: gsp agonist = ?; gsp antag = -7%; Menin-MLL FL inh = 5.0; D2 PAM = 5; TRPV1 PAM = -5; ClpP mod = -2.1%; Sfp inh = 1%

Going on with the list.
item	molecule	gsp agonist	gsp antag	Menin-MLL FL inh	D2 PAM	TRPV1 PAM	ClpP mod	Sfp inh
37	c1ccc2[nH]c(-c3ccnc4ccccc34)nc2c1	12%&-1%	-7%&16%	-7.3&1.3	-5&-20	-11&10	16µM*!	79µM*!
38	CCc1nc(C)c(C(=O)N2CCCC(C(=O)Nc3cccc(-c4cccc(C)c4)c3)C2)o1 (stereo unspecified)	-70%[inhibitor]	-25%	nt	-19	-2	-5.3%	-5%
39	COc1ccccc1CNC(=O)COc1cccnc1[N+](=O)[O-]	?	4%	-0.7	1	12	nt	14%
40	CCOC(=O)c1sc2nc3c(SCCC(=O)O)cc(C(=O)c4cc(OC)ccc4O)cn3c(=O)c2c1C	-8%	?	43[activator]	-17	4	-19%	-22%
41	CCn1ncc(CN2CCN(C(=O)Nc3ccccc3C(=O)OC)CC2)c1C	-52%	11%	0.6	-20	12	-20%	-11%
42	Cc1nc(SCC(=O)Nc2cc(Cl)ccc2[N+](=O)[O-])nc(C)c1C	8%	-21%	1.6	16	5	-1.7%	-13%
43	COc1ccc2nc(C)cc(N/N=C/c3ccccc3)c2c1	-6%	3%	nt	-12	-9	-13%	nt
44	COc1ccc(S(=O)(=O)N2CCCCC2)cc1NC(=O)CCCNC(=O)c1ccc(Cl)cc1	8%	-8%	nt	-4	-2	0.2%	nt
45	COC(=O)c1ccc(COC(=O)CSCC(=O)Nc2ccc(C)cc2C)cc1	-24%	2%	nt	-7	nt	-3.1%	nt
46	CCOC(=O)N1CCN(C(=O)CSc2ccc3nnc(-c4cccnc4)n3n2)CC1	?	-7%	-0.6	-2	-1	nt	4%
47	CC(=O)Nc1nc(Cn2nnc(-c3ccc4c(c3)OCO4)n2)nc(N(C)C)n1	-4%[15.4 µM]	12%	-0.1	-7	-12	1.3%	17%
48	COc1cc2c(cc1OC)C(C)N(C(=S)NC(=O)c1ccccc1)CC2 (stereo unspecified)	5%[15.4 µM]	-26%	1.1	-4	-3	nt	5%
49	O=C(CN1CCN(S(=O)(=O)c2ccccc2)CC1)Nc1ccccc1Cl	-3%	-1%	0.3	9	-4	-3.2%	9%
50	COc1ccc(/C=N/NC(=O)Cn2cc(C(F)(F)F)ccc2=O)cc1	-10%[15.4 µM]	8%	-0.2	7	4	0.1%	10%
51	CSc1nnc(-c2cc(Br)ccc2N=Cc2c(C)[nH]n(-c3ccccc3)c2=O)c(=O)[nH]1	-5%[15.4 µM]	?	2.4	-3	-1	nt	-6%
52	CCOC(=O)CC1COCCN1C(=O)c1ccc2oc(Cc3ccccc3)nc2c1 (stereo unspecified)	-5%[15.4 µM]	1%	3.5	-4	-5	?	11%
53	OC1C[N+]2(CCCCC2)C1	-16%	15%	1.8	-9	3	-0.4%	10%
54	COC(=O)c1cc(=O)c2c(C)nc(C(Cl)(Cl)Cl)nc2[nH]1	0%[15.4 µM]	-5%	-0.4	14	27	nt	-4%
55	COc1cccc(CN2CCN(Cc3ccc(C)o3)CC2CCO)c1 (stereo unspecified)	-4%	4%	-0.5	-17	-11	1.1%	2%
56	CC(OC(=O)CCc1nc2ccccc2c(=O)[nH]1)C(=O)Nc1cccc(C(F)(F)F)c1 (stereo unspecified)	?	-8%	nt	-11	nt	nt	nt
